MLL AF4-AF9 inh – MLL-AF4/AF9 protein interaction inhibition. P42568. AlphaScreen, biotin-AF4 peptide binding to FLAG-AF9. inhibition, % at 10 µM. 0.47% of 350,000 active;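 active means every replicate reaching a set inhibition limit, whatever the replicate mean, cut at about 25% in these data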;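 further: 0% = plate neutral control median and 100% = total signal loss; the record names both 10 and 1 µM as test concentration; the first replicate is given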
Target sequence (P42568 whole entry, looked up): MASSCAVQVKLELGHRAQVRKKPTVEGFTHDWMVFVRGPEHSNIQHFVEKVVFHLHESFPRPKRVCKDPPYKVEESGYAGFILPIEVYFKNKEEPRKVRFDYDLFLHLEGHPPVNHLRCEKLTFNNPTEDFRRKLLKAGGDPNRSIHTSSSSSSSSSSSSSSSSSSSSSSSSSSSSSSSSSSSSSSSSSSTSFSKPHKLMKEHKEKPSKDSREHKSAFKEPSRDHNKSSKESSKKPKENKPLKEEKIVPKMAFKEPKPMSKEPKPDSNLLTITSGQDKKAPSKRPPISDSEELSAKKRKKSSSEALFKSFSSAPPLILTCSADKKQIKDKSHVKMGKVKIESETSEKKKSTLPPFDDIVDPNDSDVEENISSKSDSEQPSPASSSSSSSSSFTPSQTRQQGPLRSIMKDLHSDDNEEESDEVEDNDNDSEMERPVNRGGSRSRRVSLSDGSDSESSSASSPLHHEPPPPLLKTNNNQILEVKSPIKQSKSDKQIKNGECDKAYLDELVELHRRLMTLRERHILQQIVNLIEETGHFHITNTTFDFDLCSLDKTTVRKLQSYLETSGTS
Ecoli rRNA inh – selective bacterial rRNA inhibition in E. coli; 1.6% of 350,000 active; GFP signal change (wild-type ribosome), % (no concentration beside the values); E. coli WT GFP vs humanized-ribosome RFP mutants, fluorescence, 24 h; active compounds read low; DMSO median 0, no signal -100;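 active means significant combined selectivity score with lowered wild-type GFP, culture density cut under 30%, mutant RFP and density less affected; inactive means any of these conditions unmet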; further: one replicate is shown; some compounds called inactive have numbers as strong as hits
Ecoli rRNA inh OD600 – second read-out of Ecoli rRNA inh, no call of its own (marks repeat the call); OD600 change, %; measured here: OD600 growth;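 optical density of the mix in the first replicate; 0 = DMSO median and -100 = no signal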
Ecoli rRNA inh RFP – second read-out of Ecoli rRNA inh, no call of its own (marks repeat the call); RFP signal change, %; measured here: RFP humanized mutant strains;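 first replicate; 0 = DMSO median and -100 = no signal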
Numbers without * were called inactive; & = joins results of further samples. A portion of the library; count on the stated rates, not on these rows.

SMILES	MLL AF4-AF9 inh	Ecoli rRNA inh	Ecoli rRNA inh OD600	Ecoli rRNA inh RFP
CCS(=O)(=O)Nc1ccc2c(c1)C(=O)N(C)C[C@H](OC)[C@@H](C)CN(C(=O)COC)[C@@H](C)CO2	-4.7	0.7	0.0	0.4
Cc1nc(C(F)(F)F)ccc1C(=O)N1CCC1(C)C(=O)NS(=O)(=O)c1cccc(C#N)c1 (configuration not stated)	-0.4	13.7	13.3	-3.0
CCS(=O)(=O)N1CC(=O)N2[C@H](CO)[C@H](c3ccc(C4=CCCCC4)cc3)[C@@H]2C1	1.9	-0.2	-1.4	2.9
C[C@@H]1CN([C@H](C)CO)S(=O)(=O)c2ccc(C3=CCCC3)cc2O[C@@H]1CN(C)C(=O)CN(C)C	-0.5	3.4	15.8	-3.4
C[C@@H]1CN([C@H](C)CO)C(=O)c2cc(NC(=O)Nc3ccc4c(c3)OCO4)ccc2O[C@H]1CN(C)Cc1ccc2c(c1)OCO2	13.0	-2.3	-7.6	5.8
C[C@@H]1CN([C@@H](C)CO)C(=O)Cc2cc(NC(=O)Nc3cccc4ccccc34)ccc2O[C@H]1CN(C)C(=O)Nc1ccc(F)cc1	2.6	-1.1	3.6	-0.8
CN1CCN(C(=O)C[C@@H]2CC[C@H]3[C@@H](COC[C@@H](O)CN3C(=O)c3ccccc3F)O2)CC1	-2.4	1.8	-0.7	-4.1
CO[C@H]1CC[C@H]2CCOc3c(C#N)cccc3C(=O)N(C)[C@H](C)C(=O)N(C)C[C@@H]1O2	-9.7	0.4	2.4	-4.3
COc1ccc2c3c(n(C)c2c1)[C@H](CO)N(C(=O)NC(C)C)CC31CCN(CC2CCCC2)CC1	-1.7	3.4	5.0	-1.0
COCC#Cc1ccc2c(c1)O[C@H](CN(C)Cc1ccccn1)[C@@H](C)CN([C@@H](C)CO)S2(=O)=O	0.2	-8.3	-17.8	-2.9
CN(C)CC#Cc1ccc([C@@H]2[C@H](CO)N3CCCCN(S(=O)(=O)c4ccccc4)C[C@@H]23)cc1	8.2	1.8	12.8	-1.4
CC(C)NC(=O)N(C)C[C@@H]1Oc2ccc(NC(=O)Nc3cccc4ccccc34)cc2CC(=O)N([C@H](C)CO)C[C@H]1C	-1.7	-3.0	5.2	-2.8
O=C(Nc1ccc(F)cc1)N[C@H]1CC[C@@H](CCNS(=O)(=O)c2ccccc2F)O[C@H]1CO	-4.7	-1.7	-3.0	-1.7
CSc1ccc(CN2CCC(C)(Oc3ccc4ccccc4c3)C2)cc1 (configuration not stated)	0.0	-30.4	-54.2	-3.2
O=C(NC1CCCC1)N1CCCCN2[C@H](CO)[C@H](c3ccc(-c4cccnc4)cc3)[C@H]2C1	0.5	-0.9	-2.2	-3.3
CC(C)CC#Cc1cnc2c(c1)C(=O)N([C@H](C)CO)C[C@H](C)[C@H](CN(C)Cc1cccc(F)c1)O2	4.0	0.5	-10.5	5.9
COc1cc(CN2CC3(CCN(C(=O)Nc4c(C)noc4C)CC3)c3c([nH]c4cc(OC)ccc34)[C@H]2CO)cc(OC)c1	0.3	2.8	0.2	0.7
C[C@H](CO)N1C[C@H](C)[C@H](CN(C)Cc2ccc(C(=O)O)cc2)Oc2ccc(NC(=O)Nc3ccc(C(F)(F)F)cc3)cc2C1=O	-0.2	-5.3	-11.7	0.2
O=C(Cc1cccnc1)N[C@@H]1CC[C@H](CCn2cc(-c3ccccc3F)nn2)O[C@H]1CO	-0.9	0.9	2.7	-1.1
COCC(=O)N(C)C[C@@H]1Oc2ncc(C3=CCCC3)cc2C(=O)N([C@H](C)CO)C[C@H]1C	0.4	0.4	12.0	-1.2

Ordered by the number under Ecoli rRNA inh OD600 (largest number first): 3 from the list above
SMILES	MLL AF4-AF9 inh	Ecoli rRNA inh	Ecoli rRNA inh OD600	Ecoli rRNA inh RFP
CC(C)NC(=O)N(C)C[C@@H]1Oc2ccc(NC(=O)Nc3cccc4ccccc34)cc2CC(=O)N([C@H](C)CO)C[C@H]1C	-1.7	-3.0	5.2	-2.8
O=C(Nc1ccc(F)cc1)N[C@H]1CC[C@@H](CCNS(=O)(=O)c2ccccc2F)O[C@H]1CO	-4.7	-1.7	-3.0	-1.7
C[C@H](CO)N1C[C@H](C)[C@H](CN(C)Cc2ccc(C(=O)O)cc2)Oc2ccc(NC(=O)Nc3ccc(C(F)(F)F)cc3)cc2C1=O	-0.2	-5.3	-11.7	0.2

Additional compounds:
SMILES	MLL AF4-AF9 inh	Ecoli rRNA inh	Ecoli rRNA inh OD600	Ecoli rRNA inh RFP
CC(C)NC(=O)Nc1ccc2c(c1)CC(=O)N([C@H](C)CO)C[C@H](C)[C@H](CN(C)Cc1ccc(Oc3ccccc3)cc1)O2	5.7	-7.7	-20.2	9.5
O=C(N[C@H]1CC[C@H](CC(=O)N2CCc3ccccc3C2)O[C@@H]1CO)C1CCC1	-19.6	-0.4	4.2	-3.3
O=S(=O)(Cc1ccccc1)N1CCCCN2[C@H](CO)[C@H](c3ccc(-c4ccncc4)cc3)[C@@H]2C1	1.1	1.1	13.7	-0.3
COc1ccc(-c2cn(CC[C@H]3CC[C@H](N)[C@@H](CO)O3)nn2)cc1	0.5	-0.3	2.3	-0.8
O=C(Nc1cccc(Cl)c1)N[C@@H]1CC[C@H](CCNC(=O)C2CCC2)O[C@H]1CO	-9.9	-1.9	-5.7	1.4
COc1ccccc1CNc1nc(NCc2ccccc2)nc2ccsc12	1.8	-62.0	-72.8	-16.6
COc1cccc(S(=O)(=O)N2C[C@H](O)COC[C@H]3O[C@@H](CC(=O)N4CCCCC4)CC[C@@H]32)c1	-3.2	4.0	5.7	-2.5
Cc1noc(C)c1S(=O)(=O)Nc1ccc2c(c1)C(=O)N([C@@H](C)CO)C[C@H](C)[C@@H](CN(C)CC1CCCCC1)OCCCC[C@H](C)O2	10.5	2.5	2.1	4.6
Cc1ccc(NC(=O)CNC(=O)CN2C(=O)c3ccccc3C2=O)cc1	5.7	5.0	16.9	-1.1
C[C@@H](O)C#Cc1cnc2c(c1)C(=O)N([C@@H](C)CO)C[C@H](C)[C@@H](CN(C)C(=O)c1ccncc1)O2	0.0	4.0	-1.1	-3.2
OC(c1ccc(F)cc1)c1nc(-c2cncnc2)cs1 (configuration not stated)	-0.5	10.1	22.6	1.0
COc1cccc(NC(=O)C2(C)CCCN(C(C)C)C2)c1 (configuration not stated)	-1.5	12.8	18.1	0.2
CCSc1ccc(-c2cc(NC=O)c3ncc(-c4cccc(C(=O)NCCN(C)C)c4)n3c2)cc1	42.9*	-33.4	-47.8	-9.1
CCc1nc2c(OCc3ccc(Cl)cc3)cccn2c1N(C)C(=O)c1ccccc1F	3.2	0.5	-32.9	7.4
C[C@H](CO)N1C[C@H](C)[C@H](CN(C)Cc2cccc(C(=O)O)c2)OCc2cn(nn2)CCCC1=O	-16.3	-0.5	0.8	-1.9
C[C@@H]1CCCCO[C@H](CN(C)Cc2ccc3c(c2)OCO3)[C@H](C)CN([C@H](C)CO)C(=O)c2cc(NC(=O)c3ccncc3)ccc2O1	2.3	-1.2	-1.6	2.2
COc1ccc(S(=O)(=O)N(C)C[C@H]2Oc3ccc(NS(=O)(=O)c4ccc(C)cc4)cc3C(=O)N([C@@H](C)CO)C[C@@H]2C)cc1	0.3	-3.7	-2.7	1.0
Cc1sc2ncnc(N3CCC(C(=O)N4CC(C)SC4=Nc4ccc(Cl)cc4)CC3)c2c1C (configuration not stated)	-0.6	7.2	-1.4	0.9
CO[C@@H](CN(C)Cc1ccc(-c2ccccn2)cc1)[C@@H](C)CN(C(=O)Nc1ccc(F)cc1)[C@H](C)CO	-11.5	-1.7	0.0	-0.3
C/C=C/c1ccc([C@H]2[C@H]3CN(C(=O)c4cnccn4)CC(=O)N3[C@H]2CO)cc1	10.6	4.5	4.1	-7.4
C[C@H](CO)N1C[C@H](C)[C@@H](CN(C)C(=O)C2CCCCC2)Oc2cc(-c3ccc(F)cc3)ccc2S1(=O)=O	3.7	-9.4	-9.6	6.2
C[C@H]1CN([C@@H](C)CO)C(=O)c2cccc(NC(=O)c3cnccn3)c2O[C@@H]1CN(C)C(=O)NC1CCCCC1	-3.7	1.9	9.9	-3.0
CNC[C@H]1Oc2c(NC(=O)c3cc(C)nn3C)cccc2C(=O)N([C@@H](C)CO)C[C@H]1C	-1.4	10.3	12.0	1.8
Cc1noc(C)c1NC(=O)Nc1cccc2c1O[C@H](CN(C)CC1CCCCC1)[C@@H](C)CN([C@H](C)CO)C2=O	1.7	-2.2	-5.9	-0.2
CCCC#Cc1ccc([C@H]2[C@@H](CO)N3C(=O)CN(S(=O)(=O)c4ccccc4C)C[C@H]23)cc1	-0.8	5.7	-5.2	0.9
CCC(=O)N1CC2(C1)[C@@H](c1ccc(-c3ccc(F)cc3)cc1)[C@@H](CO)N2C(=O)CC	2.3	-1.1	-12.9	6.0
C[C@@H](NC(=O)C[C@@H]1C=C[C@H](NC(=O)C2CCOCC2)[C@H](CO)O1)c1ccccc1	-3.1	-0.5	1.5	-0.1
COc1ccc(CN(C)C[C@@H]2OCCCC[C@@H](C)Oc3ccc(NC(=O)NC4CCCCC4)cc3C(=O)N([C@H](C)CO)C[C@@H]2C)cc1	1.0	4.6	8.3	2.5
COc1ccc(S(=O)(=O)Nc2ccc3c(c2)C(=O)N([C@H](C)CO)C[C@H](C)[C@H](CN(C)S(=O)(=O)c2ccc(F)cc2)O3)cc1	-0.5	-0.4	-6.6	-0.2
CCC(=O)N1[C@@H](CO)[C@H](c2ccc(-c3ccc(C#N)cc3)cc2)C12CN(C(C)=O)C2	-1.1	-2.4	1.6	0.8
CNC[C@H]1Oc2ncc(-c3ccc(OC)cc3)cc2C(=O)N([C@H](C)CO)C[C@@H]1C	2.1	2.2	12.1	-0.3
CC(C)NC(=O)Nc1ccc2c(c1)C(=O)N([C@H](C)CO)C[C@H](C)[C@H](CN(C)Cc1ccc(C(=O)O)cc1)OCCCC[C@H](C)O2	-0.7	2.9	7.1	-2.5
CO[C@@H]1CN(C)C(=O)c2ccc(NC(=O)c3ccccc3)cc2OC[C@@H](C)N(C(C)=O)C[C@@H]1C	-7.1	0.0	2.8	-0.4
COCC(=O)N1C[C@@H](C)[C@@H](OC)CN(C)C(=O)c2cc(NS(C)(=O)=O)ccc2OC[C@H]1C	-0.7	1.0	10.1	-3.6
C[C@H]1CN([C@@H](C)CO)C(=O)c2cc(/C=C/c3ccccc3)cnc2O[C@H]1CN(C)C(=O)c1ccc(F)cc1	4.2	-15.9	-15.8	-1.5
COc1ccc(S(=O)(=O)N(C)C[C@@H]2Oc3ccc(NS(=O)(=O)c4cccs4)cc3CC(=O)N([C@H](C)CO)C[C@H]2C)cc1	-2.2	-1.7	8.1	1.5
O=C(NCC[C@@H]1CC[C@H](NS(=O)(=O)c2ccc(Oc3ccccc3)cc2)[C@H](CO)O1)C1CC1	-3.0	-3.4	-14.5	1.9
C[C@@H]1CCCCO[C@@H](CN(C)Cc2ccc(C(=O)O)cc2)[C@@H](C)CN([C@H](C)CO)C(=O)c2cc(NS(C)(=O)=O)ccc2O1	-6.6&-2.8	0.3&17.6	0.4&11.6	-0.3&3.3
N#Cc1ccc(S(=O)(=O)NCC2CCN(C(=O)C(=O)c3cc4ccccc4o3)CC2)cc1	-2.3	6.5	2.5	9.1
C[C@H](CO)N1C[C@H](C)[C@H](CN(C)S(=O)(=O)c2cccc(F)c2)Oc2ncc(C#CC3(O)CCCC3)cc2C1=O	-15.2	-0.9	7.1	2.4

The final three compounds of the part before are carried over, then new ones follow:
SMILES	MLL AF4-AF9 inh	Ecoli rRNA inh	Ecoli rRNA inh OD600	Ecoli rRNA inh RFP
C[C@@H]1CCCCO[C@@H](CN(C)Cc2ccc(C(=O)O)cc2)[C@@H](C)CN([C@H](C)CO)C(=O)c2cc(NS(C)(=O)=O)ccc2O1	-6.6&-2.8	0.3&17.6	0.4&11.6	-0.3&3.3
N#Cc1ccc(S(=O)(=O)NCC2CCN(C(=O)C(=O)c3cc4ccccc4o3)CC2)cc1	-2.3	6.5	2.5	9.1
C[C@H](CO)N1C[C@H](C)[C@H](CN(C)S(=O)(=O)c2cccc(F)c2)Oc2ncc(C#CC3(O)CCCC3)cc2C1=O	-15.2	-0.9	7.1	2.4
CC(C)NC(=O)N1[C@H](CO)[C@@H](c2ccccc2)C12CN(C(=O)CN(C)C)C2	-0.3	3.3	5.3	-1.3
CC(=O)NC[C@@H]1[C@@H](c2ccc(C3=CCCC3)cc2)[C@@H](CO)N1C(=O)C1CC1	-4.4	2.8	1.3	-2.8
CC(C)(C)Cc1c(-c2cccc(Br)c2)nc2ccc(Br)cn12	3.6	-0.8	20.5	5.0
CC1(C(=O)NCCc2ccccc2)Cc2c(-c3ccccc3)ccnc2O1 (configuration not stated)	-0.6	-48.8	-72.4	-28.0
CO[C@@H]1CN(C)C(=O)c2cc(NC(C)=O)ccc2OC[C@H](C)N(S(=O)(=O)c2cn(C)cn2)C[C@H]1C	-2.4	-1.9	-13.0	-3.5
C[C@@H]1CN([C@H](C)CO)C(=O)c2cc(NC(=O)c3ccccc3)ccc2O[C@@H](C)CCCCO[C@@H]1CN(C)S(=O)(=O)c1cn(C)cn1	-4.2	-1.5	1.7	0.4
COc1ccc(S(=O)(=O)Nc2ccc3c(c2)CC(=O)N([C@@H](C)CO)C[C@@H](C)[C@@H](CN(C)C)O3)cc1	-5.8	1.3	6.2	-2.3
CCC(C(=O)NCc1ccccc1)n1c(Cc2cc(F)cc(F)c2)nc2ccccc21 (configuration not stated)	-0.9	1.6	-5.5	0.2

Screening data as filed in PubChem.
